Screening data deposited in PubChem BioAssay by ICCB-Longwood Screening Facility, Harvard Medical School.
Sa growth 42C – S. aureus growth inhibition at 42 and 30 °C, primary screen, LtaS inhibitor project, RN4220, two temperatures; OD600, 20 h, 42 °C; active compounds read low; relative growth, % (concentration not given with the values); 0.53% of 170,000 active; AID 720641, 2013;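 active = growth at 42 °C up to 50% and 20 or more points under that at 30 °C, or under 10% at both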;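 also: 300 nL library stock went into each well; scaled to the means of positive and negative controls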
HCMV NEC inh – inhibitors of HCMV UL50-UL53 interaction, biochemical, HTRF | HCMV UL50-UL53 nuclear egress complex (human cytomegalovirus) | normalized percent inhibition | inhibition, % (concentration not given with the values) | 0.15% of 190,000 active;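 active = both replicates at 50% or more, plus weaker picks with an unusually low signal ratio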;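 also: stock transfer was 100 nL into about 20 µL; 0% = negative control wells and 100% = wells with untagged competitor protein; inactives centre near -12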
GIV-Gai inh – inhibitors of GIV peptide binding to Galpha-i3, primary screen, biochemical, fluorescence polarization, FITC-GIV GBA peptide, rat Galphai3 | AID 1224905, 2016 | percent of control (FP), % (no concentration beside the values) | 0.42% of 210,000 active | 90 min; active compounds read low; scaled: aluminum fluoride 0%, vehicle 100% | Guanine nucleotide-binding protein G(i) subunit alpha-3 (Rattus norvegicus), P08753;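 active = replicate mean at 85% of control or lower, very high polarization wells dropped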;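 also: wells of about 15 µL received 100 nL stock; the first replicate is given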
Target sequence (P08753 whole entry, looked up): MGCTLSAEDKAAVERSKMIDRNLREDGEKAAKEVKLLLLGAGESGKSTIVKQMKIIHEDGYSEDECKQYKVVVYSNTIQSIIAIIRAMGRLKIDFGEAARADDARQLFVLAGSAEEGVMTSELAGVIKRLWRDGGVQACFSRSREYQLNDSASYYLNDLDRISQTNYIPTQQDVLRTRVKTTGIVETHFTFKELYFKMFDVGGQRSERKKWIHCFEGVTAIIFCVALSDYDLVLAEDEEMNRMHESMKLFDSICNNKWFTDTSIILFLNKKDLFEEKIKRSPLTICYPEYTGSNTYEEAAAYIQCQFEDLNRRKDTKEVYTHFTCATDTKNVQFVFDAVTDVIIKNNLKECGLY
Sa growth 42C second temp – also measured in Sa growth 42C; calls as there; relative growth, %; measured here: growth at 30 °C;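 optical density after 20 h as mean of two plates; 100% = untreated growth and lower means inhibition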
Starred values were filed as active, the others as inactive; · = not tested or not shown; & = joins results of further samples.

SMILES	Sa growth 42C	Sa growth 42C second temp	HCMV NEC inh	GIV-Gai inh
CCC(=O)/C=C\c1nnc2cc3c(cc2c1-c1ccc(CC)o1)OCCO3	68	26	-38	121
O=C(Cc1ccccc1)Nc1nc2ccccc2s1	87	94	22	104
Cc1ccc(-n2c(=O)c3ccc(C(=O)NCc4ccccc4Cl)cc3n(CC(=O)Nc3cccc(F)c3)c2=O)cc1	107	84	-22	105
C=C(C)C(=O)N1C(=O)OCC1c1ccccc1 (configuration not stated)	99	87	20	·
CCN1CCc2nc3sc(C(=O)c4ccc(F)cc4)c(N)c3cc2C1	118	81	·	144
CCOC(=O)c1c(C)[nH]c(C)c1S(=O)(=O)NC1CCCCCCC1	87	93	-6	100
Cc1ccc(Cn2c(=O)c3ccccc3n3nncc23)cc1	106	82	-21	102
CCn1c(=O)/c(=C\c2ccc(N(C)C)cc2)s/c1=C(/C#N)C(=O)Nc1ccc(C)cc1	97	95	-34	·
Cc1ccc2cc3c(N)c(-c4nnc(-c5ccccc5)o4)sc3nc2c1	94	86	-28	96
O=C(CNC(=O)C1CCCCC1)OCc1cc(=O)n2cc(Br)ccc2n1	77	77	-50	·
CCCCn1c(=O)c2sccc2n2c(SCc3ccccc3C)nnc12	·	·	-19	99
C/C(=N\NC(=O)CCn1c2c(c3ccccc31)CCCC2)c1ccc(Br)s1	95	93	-10	99
Cc1cc(C)c2c(c1)NC(=O)C21NNc2ccccc2O1 (configuration not stated)	55	75	-67	·
CN1CCN(/N=C/c2ccc(OC(F)F)cc2OC(F)F)CC1	97	84	-21	·
CC(NC(=O)Cc1nn[nH]n1)c1ccccc1 (configuration not stated)	84	85	4	102
CCCCOc1ccc(C2Oc3ccc(Br)cc3C3CC(c4ccc(Cl)cc4)=NN32)cc1 (configuration not stated)	·	·	-23	102
O=C(NCc1ccc(F)cc1)N1CCC(CN2CCOCC2)CC1	·	·	-28	103
Cc1cc(Br)cc(Br)c1OC(=O)c1ccco1	103	74	9	110
CCC(NC(=O)Nc1cc(C)ccc1OC)c1c(-n2cccc2)sc2c1CCN(CC)C2 (configuration not stated)	115	95	-25	105
CC(=O)N=C(C)CC1(OC(C)=O)C(=O)N(C)c2ccccc21 (configuration not stated)	99	66	-6	107
O=C(CSc1nc2ccccc2n1CCc1ccccc1)NC1CC1	94	96	-12	·
CC(C)(C)c1cc2nc(C(F)(F)F)cc(N3CCN(c4ccc(C(F)(F)F)cn4)CC3)n2n1	99	87	-30	106
COC(=O)c1c(NC(=O)N2CCCC2c2ccccc2Cl)sc2c1CCCC2 (configuration not stated)	·	·	6	107
COc1ccc(C(=O)c2ccc(OC)cc2OC)c(OC)c1	150	113	-13	108
CC(=O)N1CCN(S(=O)(=O)c2cccc(C(=O)OCc3cc(Cl)cc4c3OCOC4)c2)CC1	123	97	11	·
O=C1c2ccccc2C(O)(Cc2ccccc2)N1c1ccc2c(c1)OCO2 (configuration not stated)	89	84	1	102
CCOC(=O)c1c(-c2ccccc2)csc1NC(=O)c1cc2ccccc2oc1=O	·	·	-5	96
O=C(NCCc1ccccc1)C1CCC(=O)N1C1CCCCC1 (configuration not stated)	133	87	·	107
COc1ccc(-c2nc(SCC(=O)C(C#N)c3nc(C)cs3)n[nH]2)cc1 (configuration not stated)	78	82	-11	·
O=C(Nc1cccc(Cl)c1)Nc1ccc2c(c1)oc1ccccc12	87	84	·	104

The final 2 records of the part above lead into the next:
SMILES	Sa growth 42C	Sa growth 42C second temp	HCMV NEC inh	GIV-Gai inh
COc1ccc(-c2nc(SCC(=O)C(C#N)c3nc(C)cs3)n[nH]2)cc1 (configuration not stated)	78	82	-11	·
O=C(Nc1cccc(Cl)c1)Nc1ccc2c(c1)oc1ccccc12	87	84	·	104
COc1cc(OC)cc(C(=O)N2CCC(C(=O)NCCc3ccccc3)CC2)c1	95	74	12	106
c1ccc2c(c1)OCC(CSc1nnc3ccccn13)O2 (configuration not stated)	94	90	-30	·
COc1cccc(S(=O)(=O)Nc2noc3ccccc23)c1	·	·	-7	98
Cc1c(Cl)cnc(NC(=O)COC(=O)/C=C/c2cccn2C)c1Cl	90	74	-4	·
CCOCCn1c(=O)c2c(nc3n2CCN3c2ccc(C)c(C)c2)n(C)c1=O	107	92	·	99
Cc1cccn2c(Nc3ccc4c(c3)OCCO4)c(-c3ccc(Br)o3)nc12	94	88	-18	102
O=C(OC1COC(c2ccc(Br)cc2)OC1)c1ccc(Br)cc1 (configuration not stated)	99	94	·	103
CS(=O)(=O)N1N=C(c2ccccc2)CC1c1ccccc1 (configuration not stated)	111	97	-11	121
CCC(C(=O)Nc1ccc2c(c1)OCO2)n1nc(-c2ccc(C)cc2)c2c(c1=O)CCCC2 (configuration not stated)	100	86	-10&18	104&99
Cn1nccc1NC=C(C#N)C#N	93	87	-75	106
COCCNC(=O)Cn1cc(/C=C(\C#N)C(N)=O)c2ccccc21	96	88	-119	102
C=CCNC(=O)c1ccc(OCC=C)cc1	97	102	13	108
CCN(c1ccc(C)cc1C)S(=O)(=O)c1nnc(NC(=O)CC(C)C)s1	106	87	-14	99
CCc1noc(-c2ccc(NCc3ccccc3)c([N+](=O)[O-])c2)n1	97	82	-21	105
CN(C)C(=O)c1ccc2c(c1)N(CC(=O)N1CCN(c3ccccc3)CC1)C(=O)C1CCCCN21 (configuration not stated)	·	·	7	103
CCn1ncc(Cl)c1C(=O)NCc1ccco1	94	103	-10	106
Nc1nc2cc(Cl)ccc2n1CCCO	103	102	0	101
COc1ccc2c(CNCC(C)c3ccccc3)c(C(=O)O)n(Cc3ccc(F)cc3)c2c1 (configuration not stated)	115	98	·	99
CC1CN(Cc2nc(N3CC(C)OC(C)C3)c3c4c(sc3n2)CCCC4)CC(C)O1 (configuration not stated)	81	90	-15	·
O=C1NCCCCC1NCC(O)c1ccccc1 (configuration not stated)	96	96	-6	102
CC(=O)Nc1ccc(NC(=O)Nc2sc3nc4n(c(=O)c3c2C)CCC(C)CC4)cc1 (configuration not stated)	142	86	-20	100
O=C(Nc1cccc(N2CCCC2)c1)C(F)(F)C(F)F	120	86	-23	111
Cc1sc2c(c1C)CSC(C(=O)NCCc1ccccc1)=C2	89	79	·	101
CCOc1ccc(NS(=O)(=O)c2ccc3c4c(cccc24)C(=O)N3)cc1	88	76	-59	100
O=c1oc2c(-c3cccc(Cl)c3)cc(O)cc2s1	36	25	-2	107
O=C(c1cc(S(=O)(=O)N2CCCC(C(=O)N3CCCCC3)C2)c[nH]1)N1CCCC1 (configuration not stated)	·	·	-5	107
CC(O)c1nc2ccccc2n1CC(=O)N(c1ccccc1)C(C)C (configuration not stated)	·	·	-6&-12	100
CCc1ccccc1NC(=O)CSc1nc2c(oc3ccccc32)c(=O)n1-c1ccccc1F	86	85	-34	100
CCC(C)NC(=O)Cn1c(=O)n(CC2CCC(C(=O)NC)CC2)c(=O)c2sccc21 (configuration not stated)	77	88	·	96
CCc1ccc(NC(=O)CC(c2ccc(C)cc2)N2Cc3ccccc3C2=O)cc1 (configuration not stated)	94	94	·	108

Compounds shown so far containing a cyano group, in the order listed:
SMILES	Sa growth 42C	Sa growth 42C second temp	HCMV NEC inh	GIV-Gai inh
CCn1c(=O)/c(=C\c2ccc(N(C)C)cc2)s/c1=C(/C#N)C(=O)Nc1ccc(C)cc1	97	95	-34	·
COc1ccc(-c2nc(SCC(=O)C(C#N)c3nc(C)cs3)n[nH]2)cc1 (configuration not stated)	78	82	-11	·
Cn1nccc1NC=C(C#N)C#N	93	87	-75	106
COCCNC(=O)Cn1cc(/C=C(\C#N)C(N)=O)c2ccccc21	96	88	-119	102

Sorted by the number under GIV-Gai inh (descending): six from the list above
smiles | Sa growth 42C second temp | GIV-Gai inh
CCn1ncc(Cl)c1C(=O)NCc1ccco1 | 103 | 106
O=C1NCCCCC1NCC(O)c1ccccc1 (configuration not stated) | 96 | 102
Nc1nc2cc(Cl)ccc2n1CCCO | 102 | 101
CC(=O)Nc1ccc(NC(=O)Nc2sc3nc4n(c(=O)c3c2C)CCC(C)CC4)cc1 (configuration not stated) | 86 | 100
COc1ccc2c(CNCC(C)c3ccccc3)c(C(=O)O)n(Cc3ccc(F)cc3)c2c1 (configuration not stated) | 98 | 99
CCC(C)NC(=O)Cn1c(=O)n(CC2CCC(C(=O)NC)CC2)c(=O)c2sccc21 (configuration not stated) | 88 | 96

Further entries follow:
SMILES	Sa growth 42C	Sa growth 42C second temp	HCMV NEC inh	GIV-Gai inh
COc1cc(Cl)c(C)cc1NC(=O)c1sc2nc(C)cc(C)c2c1N	98	92	-21	102
COc1ccccc1NC(=O)c1sc2nc(-c3cc4cc(Cl)ccc4oc3=O)[nH]c(=O)c2c1C	79	88	1	97
O=C(NCc1ccccc1)c1ccc(CSCc2cccc(Cl)c2)o1	94	89	·	104
CC1=C(C(=O)OC(C)(C)C)C(c2cccc(Cl)c2)NC(=O)N1 (configuration not stated)	107	103	-11	102
O=S(=O)(Cc1ccccc1)N1CC(OCc2ccc(Cl)cc2)C1	·	·	-19	92
CN(CC1COc2ccccc2O1)C(=O)c1cc(=O)[nH]c2ccccc12 (configuration not stated)	88	91	6	·
Cc1ccsc1CN(C(=O)c1cc(-c2ccc3c(c2)OCCO3)on1)C1CCS(=O)(=O)C1 (configuration not stated)	·	·	12	99
O=C(c1ccc(S(=O)(=O)N2CCOCC2)cc1)n1nnc2ccccc21	94	98	12	98
O=C(CCn1cnc2onc(-c3ccc(F)cc3)c2c1=O)N1CCCc2ccccc21	93	107	4	95
COC(=O)Cn1c2ccc(Cl)cc2c2nc3ccccc3nc21	99	88	·	103
CCOc1ccc2nc(NC(=O)c3ccccc3OC)sc2c1	76	55	-26	·
CC(C)(C)c1nnc(NC(=O)C2CC(=O)N(CCc3c[nH]c4ccc(F)cc34)C2)s1 (configuration not stated)	·	·	4	103
c1ccc(-c2nnc3n2N=C(c2cccs2)CS3)cc1	92	78	-53	108
Oc1c(CN2CCOCC2)cc(Cl)c2cccnc12	1.3*	5.5*	-60	·
CCOc1ccc(-n2cc(C(=O)N3CCC(Cc4ccccc4)CC3)c3cc(OC)c(OC)cc3c2=O)cc1	·	·	-1	98
Cc1ccc(NC(=O)CCn2c(C(F)(F)F)nc3cc(S(=O)(=O)N(C)C)ccc32)cc1C	·	·	-27	108
N#CCC(=O)N/N=C/c1cc2ccccc2[nH]1	103	106	-2	97
CCc1noc(C)c1C(=O)OCC(=O)Nc1ccc(NC(C)=O)cc1	103	92	-22	·
CCc1ccc(-c2[nH]c3c(c2-c2sc(C)c(C(=O)OC)c2O)c(=O)n(C)c(=O)n3C)cc1	103	89	-4	168
O=C1c2ccccc2-c2nc3ccccc3c(=O)n21	113	82	2	104
CCCC(c1nnnn1CC1CCCO1)N(Cc1cc2cc(C)cc(C)c2[nH]c1=O)C1CCCC1 (configuration not stated)	126	102	-25	107
COC(=O)NNc1ncccc1C(F)(F)F	97	93	-20	106
CCOc1ccc(NC(=O)CSc2ncc3c(n2)-c2cc(Cl)ccc2N(C)S3(=O)=O)cc1	89	100	·	98
CCC(C)C(C(=O)O)N1C(=O)c2ccccc2C1=O (configuration not stated)	97	88	-7	102
CC(C)CC(=O)NC1CC(=O)N(c2ccc3c(c2)OCCO3)C1 (configuration not stated)	104	98	·	101&98
CCc1ccc(-n2c(SCC(=O)NCC(C)C)nnc2-c2ccncc2)cc1	100	114	18	104
CCOC(=O)c1[nH]c2ccccc2c1NC(=O)c1ccc(N2C(=O)CCC2=O)cc1	88	87	-50	106
Cc1noc(C)c1COc1ccc(C(=O)OCC(=O)N(C)C2(C#N)CCCCC2)cc1	90	98	-6	·
N#Cc1ccc(NC(=O)CSc2nc3ccccc3[nH]2)cc1	112	98	-14	100

Random excerpt: five records from the list, in no set order.
SMILES	Sa growth 42C	Sa growth 42C second temp	HCMV NEC inh	GIV-Gai inh
CC(C)CC(=O)NC1CC(=O)N(c2ccc3c(c2)OCCO3)C1 (configuration not stated)	104	98	·	101&98
Cc1ccc(NC(=O)CCn2c(C(F)(F)F)nc3cc(S(=O)(=O)N(C)C)ccc32)cc1C	·	·	-27	108
CCC(C)C(C(=O)O)N1C(=O)c2ccccc2C1=O (configuration not stated)	97	88	-7	102
CCc1ccc(-c2[nH]c3c(c2-c2sc(C)c(C(=O)OC)c2O)c(=O)n(C)c(=O)n3C)cc1	103	89	-4	168
N#Cc1ccc(NC(=O)CSc2nc3ccccc3[nH]2)cc1	112	98	-14	100
